Screening data as filed in PubChem.
UCH37 inh: inhibitors of human UCH37 deubiquitinase, primary screen, biochemical, Ub-AMC cleavage, fluorescence; Ubiquitin carboxyl-terminal hydrolase isozyme L5 (Homo sapiens), Q9Y5K5; purified proteasome/UCH37; inhibition, % (no concentration beside the values); hit rate 0.33% among 330,000; AID 588478, 2011;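 active = mean of two replicates above 20%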;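 note: 0% = compound-free wells with enzyme and 100% = wells lacking proteasome; stock transfer was 100 nL into about 20 µL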
Target sequence (Q9Y5K5 whole entry, looked up): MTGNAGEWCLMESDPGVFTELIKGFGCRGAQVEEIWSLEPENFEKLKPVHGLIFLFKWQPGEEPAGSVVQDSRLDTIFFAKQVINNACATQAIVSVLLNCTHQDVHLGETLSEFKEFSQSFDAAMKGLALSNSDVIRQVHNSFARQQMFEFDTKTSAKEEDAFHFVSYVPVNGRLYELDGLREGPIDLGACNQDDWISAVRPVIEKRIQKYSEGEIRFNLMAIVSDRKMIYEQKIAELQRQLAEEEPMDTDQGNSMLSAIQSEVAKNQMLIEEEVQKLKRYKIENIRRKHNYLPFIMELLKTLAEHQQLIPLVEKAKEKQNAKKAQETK
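system = Proteasome-associated human UCH37 deubiquitinase | amount = 0.15 nM proteasome as dispensed | medium = pH 7.4 Tris-HCl (50 mM) with ovalbumin, ATP-MgCl2, DTT | incubation = 30 min preincubation with enzyme, 25 min cleavage at room temperature | detection = AMC fluorescence 355/460 nm | read-out basis = percent inhibition | controls = no-proteasome and no-compound wells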
ALR inh: inhibitors of human ALR sulfhydryl oxidase, primary screen, biochemical, H2O2 detection, HRP-luminol luminescence, single point | FAD-linked sulfhydryl oxidase ALR (Homo sapiens), P55789 | purified ALR, DTT oxidation | inhibition, % (test concentration not listed) | hit rate 3.8% among 290,000;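 active = mean and each replicate at 75% or more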;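 note: stock transfer was 7.5 nL into about 7.5 µL; 0% = neutral wells and 100% = wells with inactivated enzyme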
Ecoli growth: E. coli growth inhibition, primary screen, OD600 | Escherichia coli growth, 23 h; stronger effect = lower value | OD600 absorbance (concentration not given with the values) | hit rate 0.21% among 330,000;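 active = OD600 absorbance below the run mean of sample wells minus 3.6 SD, in any replicate, cut at about 0.56 in these data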;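 note: stock transfer was 300 nL into about 60 µL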
Beta2AR agonist: beta2AR agonists driving receptor internalization, primary screen, cell-based, FAP fluorogen, flow cytometry; Am2.2-beta2AR cells; reference of the scale not given here; Beta-2 adrenergic receptor (Homo sapiens), P07550; response, % (test concentration not listed); hit rate 0.43% among 340,000; AID 504454, 2011;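 active = response above a set limit, near 3 SD of response in nonfluorescent compounds, cut at about 42% in these data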;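 note: stock transfer was 100 nL into about 11 µL; a reference agonist was the positive control; negative values mostly stem from fluorescent compounds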
FGF22 binding: binders of human FGF22 protein, primary screen, FGF22 synaptogenesis inhibitor project, biophysical, thermal shift, single point | Fibroblast growth factor 22 (Homo sapiens), Q9HCT0 | recombinant FGF22 thermal shift, SYPRO orange fluorescence; percent of sucrose octasulfate shift, DMSO zero | calls only at 9.99 µM | hit rate 1.5% among 340,000 | AID 651658, 2012;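 active = melting point raised past a set limit in the mean and every replicate; three in four hits are not shown here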
Target sequence (Q9HCT0 whole entry, looked up): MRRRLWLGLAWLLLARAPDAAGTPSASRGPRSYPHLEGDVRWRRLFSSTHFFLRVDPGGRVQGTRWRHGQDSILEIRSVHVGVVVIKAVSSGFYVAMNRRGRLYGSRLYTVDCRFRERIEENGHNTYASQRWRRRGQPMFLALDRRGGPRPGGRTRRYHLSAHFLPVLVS
LANA-H2B inh: blockers of LANA interaction with H2A/H2B – biochemical, FP readout, HTS, primary screen; Protein LANA1 (Human herpesvirus 8 type P (isolate GK18)), Q9QR71; cell-free LANA-H2A/H2B peptide, fluorescence polarization; inhibition, % (no concentration beside the values); hit rate 0.6% among 320,000; in the data active = inhibition mostly above about 10%, no sharp cut-off; inactive = mostly below about 6.7%;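 note: stock transfer was 7.5 nL into about 10 µL; 0% = median of vehicle wells and 100% = median of positive control wells; one replicate is shown; the record names a cut of 25% in any replicate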
HNF4A DNA FP: change in binding of human HNF4A to DNA, primary screen, biochemical, fluorescence polarization, FITC-DNA. Hepatocyte nuclear factor 4-alpha (Homo sapiens), P41235. 1 h. activity change, % at 10 µM. hit rate 0.3% among 360,000. AID 1224865, 2016; in the data active = activity change above about 30%, passing the limit was not always enough;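 note: controls were the assay level and a saturating level of protein; the project sought stronger binding though the title names inhibitors; some compounds called inactive have numbers as strong as hits; positive values seem to mean higher polarization but the record does not say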
Target sequence (P41235 whole entry, looked up): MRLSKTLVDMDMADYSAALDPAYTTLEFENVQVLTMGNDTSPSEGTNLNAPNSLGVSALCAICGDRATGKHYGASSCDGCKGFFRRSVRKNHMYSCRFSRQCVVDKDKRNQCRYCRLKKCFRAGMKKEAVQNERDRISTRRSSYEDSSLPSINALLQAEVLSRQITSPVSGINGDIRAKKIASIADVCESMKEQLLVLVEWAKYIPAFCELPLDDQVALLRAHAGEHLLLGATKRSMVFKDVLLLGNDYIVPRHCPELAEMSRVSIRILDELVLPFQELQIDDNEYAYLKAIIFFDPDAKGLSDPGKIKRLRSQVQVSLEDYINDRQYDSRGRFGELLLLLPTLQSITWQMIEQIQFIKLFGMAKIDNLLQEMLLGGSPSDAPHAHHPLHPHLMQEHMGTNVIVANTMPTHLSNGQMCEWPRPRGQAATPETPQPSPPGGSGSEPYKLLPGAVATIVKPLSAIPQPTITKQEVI
* = called active by the depositor; i = inactive; . = not tested or not shown.

1. COc1ccc(C(C[N+](=O)[O-])c2c(C)cc3ccccn23)cc1 (centres undefined)
2. Oc1ccc2ccc3[nH]cnc3c2c1
3. CC(C)[C@H](NC(=O)NCc1ccco1)C(=O)O
4. Cn1c(N)c(C(=O)CSc2nnc(-c3cccs3)n2C2CC2)c(=O)[nH]c1=O
5. Cc1cc(NC(=O)COC(=O)[C@H](Cc2c[nH]c3ccccc23)NC(=O)c2ccc(F)cc2)no1
6. CCOc1ccc(NC2OCC(O)C(O)C2O)c([N+](=O)[O-])c1 (centres undefined)
7. Cc1cnc(C(=O)OCC(=O)c2ccc(-c3ccccc3)cc2)cn1
8. O=C1NC(=O)C(Cc2c[nH]c3ccccc23)N1 (centres undefined)
compound no.	1	2	3	4	5	6	7	8
UCH37 inh	3.4	.	-4.1	2.7	1.0	4.1	1.3	3.2
ALR inh	5.0	100.0*	-2.0	.	-11.0	-0.7	-1.2	-24.6
Ecoli growth	0.695	.	0.738	0.683	0.736	0.715	0.652	0.707
Beta2AR agonist	1.5	11.4	-1.2	-8.0	8.0	-4.4	6.8	-1.8
FGF22 binding	i	i	.	i	.	i	i	i
LANA-H2B inh	4.6	0.5	2.3	.	1.2	2.3	1.2	4.4
HNF4A DNA FP	2.6	1.2	1.3	-2.2	2.3	0.2	-3.1	-1.1

9. CCN1CCN(C2CC(=O)NC2=O)CC1 (centres undefined)
10. Cc1cc([N+](=O)[O-])nn1CC(=O)N/N=C/c1ccccc1Br
11. Cc1cc(C)c(S(=O)(=O)NC(CC(=O)O)c2cccc([N+](=O)[O-])c2)c(C)c1 (centres undefined)
12. COc1ccc2ccccc2c1CN(C)Cc1ccccc1
13. Cc1nc(Oc2ccccc2)c2oc3ccccc3c2n1
14. O=C(Cc1cc(=O)oc2cc(O)ccc12)N[C@@H](Cc1c[nH]c2ccccc12)C(=O)O
15. Cc1ccc(C2=NN(C)c3nc4ccccc4n3C2)cc1
16. Cc1oc(-c2ccccc2Cl)nc1Cn1cccc1C1=NC(c2ccccc2)CO1 (centres undefined)
compound no.	9	10	11	12	13	14	15	16
UCH37 inh	0.2	.	-1.1	4.2	-0.4	-166.4	-201.2	3.1
ALR inh	.	0.0	-9.2	-35.4	-1.7	.	-2.4	-0.4
Ecoli growth	0.72	.	0.62	0.675	0.711	0.67	0.75	0.722
Beta2AR agonist	.	0.4	7.5	15.5	-2.3	5.4	-5.8	1.2
FGF22 binding	.	i	i	i	.	i	.	.
LANA-H2B inh	2.7	-5.0	3.5	12.9	-4.2	-0.3	3.0	-2.5
HNF4A DNA FP	.	-1.4	-3.1	-1.8	-1.4	1.6	-0.2	1.5

One compound at a time, as listed above. Values in the order: UCH37 inh, ALR inh, Ecoli growth, Beta2AR agonist, FGF22 binding, LANA-H2B inh, HNF4A DNA FP
COc1ccc2ccccc2c1CN(C)Cc1ccccc1 as listed: 4.2, -35.4, 0.675, 15.5, i, 12.9, -1.8
Cc1oc(-c2ccccc2Cl)nc1Cn1cccc1C1=NC(c2ccccc2)CO1 (centres undefined) as listed: 3.1, -0.4, 0.722, 1.2, ., -2.5, 1.5
Cc1ccc(C2=NN(C)c3nc4ccccc4n3C2)cc1 as listed: -201.2, -2.4, 0.75, -5.8, ., 3.0, -0.2

The results go on.
17. Cc1ccc(C(=O)NCc2ccco2)o1
18. COc1ccc(CNC(=O)CCS(=O)(=O)c2ccc3c(c2)CCN3C(C)=O)cc1
19. NS(=O)(=O)c1ccc(CCNC(=O)C(=O)Nc2cc3c4c(c2)CC(=O)N4CCC3)cc1
20. COc1cc2c(cc1OC)CN(C(=O)Cc1ccccc1)CC2
21. CCCCOc1ccc(-c2nnc(-c3ccco3)o2)cc1
22. COc1ccc(C(=O)Nc2ccc(Cl)c(S(=O)(=O)Nc3ccccc3OC)c2)cc1
23. CN(C)CCCOC(=O)c1cc2ccccc2o1
24. COCCCNC(=S)NNC(=S)Nc1ccccc1
compound no.	17	18	19	20	21	22	23	24
UCH37 inh	.	-1.7	6.3	-1.4	-4.2	-0.9	2.9	.
ALR inh	-2.2	-4.9	-0.4	-6.4	-13.5	-18.4	-14.2	96.4*
Ecoli growth	.	0.704	0.672	0.69	0.683	0.723	0.712	.
Beta2AR agonist	-4.2	-8.3	2.5	-0.7	-10.8	3.6	2.1	3.5
FGF22 binding	i	i	.	i	.	.	.	i
LANA-H2B inh	10.3	-2.6	5.0	7.2	-0.5	-0.4	-0.9	-7.9
HNF4A DNA FP	-7.2	6.3	-2.6	-3.4	1.7	-4.2	-0.8	1.7

25. ClCCn1cnc2c(SCc3ccccc3)ncnc21
26. O=C(C1=COCCO1)N1CCN(S(=O)(=O)c2cccc(Cl)c2Cl)CC1
27. O=S(=O)(Cc1cc(N2CCOCC2)nc(-c2ccccn2)n1)c1ccccc1
28. N#C/C(=N\Nc1ccc(F)cc1)C(=N)N1CCCCCC1
29. CC(C)(C)NC(=O)CN(Cc1ccc2c(c1)OCO2)C(=O)CCC(=O)Nc1nccs1
30. COc1cccc(NS(=O)(=O)c2ccc3c(c2)C2C=CCC2C(c2ccc(C(=O)O)cc2)N3)c1 (centres undefined)
31. Cc1c(C(=O)N2CCCCC2)c(S(=O)(=O)Nc2cccc(Br)c2)c(C)n1C
32. O=C(CN1CCc2ccccc2C1)Nc1ccc(OC(F)(F)F)cc1
compound no.	25	26	27	28	29	30	31	32
UCH37 inh	4.7	1.0	-7.5	.	2.7	5.6	4.2	5.6
ALR inh	.	-3.9	-2.1	-10.4	9.3	-8.7	-10.7	-3.8
Ecoli growth	0.666	0.688	0.72	.	0.664	0.671	0.698	0.61
Beta2AR agonist	-5.4	1.4	-5.2	2.6	2.4	-7.5	-3.3	8.7
FGF22 binding	i	.	i	i	i	.	i	.
LANA-H2B inh	.	-0.2	-0.4	3.9	1.1	3.1	-4.4	-0.1
HNF4A DNA FP	-6.6	0.3	-0.8	5.0	0.1	-45.9	1.7	-1.8

33. Cc1ccc(S(=O)(=O)N2CCCCC2CCNC(=O)C(=O)NC2CC2)cc1 (centres undefined)
34. C=CCn1c(CCc2ccc(OC(C)C)cc2)n[nH]c1=S
35. O=C(Nc1nc2ccc([N+](=O)[O-])cc2s1)C1CCCO1 (centres undefined)
36. Cc1nn(CC(=O)Nc2ccc(Cl)cn2)c(C)c1[N+](=O)[O-]
37. Cc1cccc(-c2cccc(NC(=O)C3CCCN(C(=O)c4cccnc4)C3)c2)c1 (centres undefined)
38. CCOC(=O)C1CCCN(c2c(NCc3ccco3)c(=O)c2=O)C1 (centres undefined)
39. CN(Cc1nc(-c2ccncc2)no1)S(=O)(=O)c1ccc(Br)cc1
40. COc1ccc(NC(=O)c2c(N)no[n+]2[O-])c(OC)c1
compound no.	33	34	35	36	37	38	39	40
UCH37 inh	.	5.7	4.8	1.0	4.8	6.5	-4.2	-0.2
ALR inh	2.7	9.2	-2.6	-0.3	-13.1	.	-23.9	-11.9
Ecoli growth	.	0.661	0.708	0.719	0.678	0.738	0.74	0.712
Beta2AR agonist	-10.7	-6.6	-2.6	-16.6	-1.7	2.7	2.0	-8.9
FGF22 binding	.	i	i	.	i	i	.	.
LANA-H2B inh	0.7	5.3	2.7	-0.7	-5.0	-3.2	5.3	2.9
HNF4A DNA FP	1.1	-3.8	-1.6	-0.6	5.5	-4.2	-0.6	-0.7

41. CCOC(=O)C1(CCOc2ccccc2)CCN(CC=C(C)C)CC1
42. COc1ccc(C(=O)NNC(=O)COc2ccc(Cl)cc2)c(OC)c1
43. CCN1CCn2c1nc(N1CCOCC1)nc2=O
44. COc1ccc(-c2cc(C(=O)NCc3ccc(Cl)cc3)no2)cc1OC
45. CCOc1ccc(CSC2=NCCN2)cc1[N+](=O)[O-]
46. Cc1ccc2c3c(c(SCC(=O)Nc4nonc4C)nc2c1)CCCC3
47. CCOC(=O)CNC(=O)Cn1cnc2sc(C)c(S(=O)(=O)N3CCC(C)CC3)c2c1=O
48. COc1ccc(NC(=O)c2cccnc2Sc2ccccc2)c(OC)c1
compound no.	41	42	43	44	45	46	47	48
UCH37 inh	4.1	1.9	2.6	1.4	4.3	2.1	0.7	3.8
ALR inh	.	-11.8	-24.6	28.9	99.1*	-3.7	-14.3	21.9
Ecoli growth	0.697	0.688	0.667	0.718	0.724	0.746	0.676	0.671
Beta2AR agonist	6.6	0.9	8.9	15.4	2.0	-0.9	-1.3	9.2
FGF22 binding	i	i	i	.	i	.	.	i
LANA-H2B inh	-2.2	-0.8	0.2	2.1	-2.6	1.9	0.7	0.1
HNF4A DNA FP	0.1	1.7	-3.0	-1.7	2.1	1.3	3.7	4.2

49. N/C(=N\OC(=O)c1ccc(Cl)cc1)c1ccc(Cl)cc1
50. COc1ccccc1C(=O)Nc1ccnn1C1CCN(Cc2csc(C(C)=O)c2)CC1
51. COc1cc(NC(=S)NC(=O)CC(C)C)ccc1NC(=O)c1cc2ccccc2o1
52. Cc1cccc(-c2nnc(NC(=O)c3ccco3)s2)c1
53. COc1ccccc1OCCn1c(CO)nc2ccccc21
54. Cc1cc(NC(=O)CSc2nc3cc(Cl)ccc3c(=O)n2C(C)C)no1
55. CNS(=O)(=O)c1cccc(C(=O)OCC(=O)c2ccc(S(=O)(=O)N3CCCCC3)cc2)c1
56. C/C(Cn1nnc2ccccc21)=N\OC(=O)c1cc(F)c(F)cc1Cl
compound no.	49	50	51	52	53	54	55	56
UCH37 inh	-0.6	-0.8	-137.0	2.3	2.6	-0.4	.	.
ALR inh	-0.5	3.2	-5.0	3.6	-1.1	.	-4.7	.
Ecoli growth	0.75	0.636	0.686	0.69	0.706	0.714	.	.
Beta2AR agonist	-8.7	9.8	0.7	-9.1	-3.6	4.6	-2.1	0.5
FGF22 binding	.	i	i	i	.	.	i	i
LANA-H2B inh	-0.2	-1.8	3.4	1.9	-3.6	.	0.3	3.4
HNF4A DNA FP	-0.3	-3.9	1.4	8.5	0.6	2.3	-1.0	1.2

57. COc1ccccc1NC(=S)N(Cc1ccc(C(=O)O)cc1)Cc1ccc(OC)c(OC)c1
58. CCOC(=O)c1ccc(N2C(=O)C(C)=C(C)C2=O)cc1
59. CCNC(=O)CSc1nc2ccccc2c(=O)n1-c1cc(OC)ccc1OC
60. CCOc1ccccc1NC(=S)NCCCn1ccnc1
61. Cc1cccc(-n2c(C)cc(C)c(C#N)c2=O)c1
62. O=C(COC(=O)c1cc(-c2cccs2)nn1-c1ccccc1)Nc1ccc(F)c([N+](=O)[O-])c1
63. CC(C)N(Cc1nc(COc2ccccc2)no1)Cc1nccn1C
64. O=C(c1ccccc1)c1ccc(OCC(O)CN2CCN(S(=O)(=O)N3CCCCC3)CC2)cc1 (centres undefined)
compound no.	57	58	59	60	61	62	63	64
UCH37 inh	5.2	3.0	1.5	-2.0	-0.2	-0.6	6.5	3.4
ALR inh	-10.7	5.8	-28.9	10.1	13.0	-1.9	-6.6	.
Ecoli growth	0.686	0.776	0.671	0.708	0.673	0.708	0.684	0.68
Beta2AR agonist	5.3	0.3	-3.0	-7.8	3.6	-0.1	2.1	-7.4
FGF22 binding	i	.	.	i	i	i	i	.
LANA-H2B inh	0.5	-3.9	0.7	-0.2	5.0	-1.9	-1.9	.
HNF4A DNA FP	0.2	0.3	1.6	0.5	-4.2	-2.2	-0.8	-0.7

This is a subset (hit frequency here may not be typical).
